Source: PubChem
FGF22 binding = binders of recombinant human FGF22 by thermal shift | hit rate 1.5% among 340,000 | calls only at 9.99 µM | SYPRO orange fluorescence; percent of sucrose octasulfate shift, DMSO zero | Q9HCT0 | AID 651658;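 active means melting point raised past a set limit in the mean and every replicate; three in four hits are not shown here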
Target sequence (Q9HCT0 whole entry, looked up): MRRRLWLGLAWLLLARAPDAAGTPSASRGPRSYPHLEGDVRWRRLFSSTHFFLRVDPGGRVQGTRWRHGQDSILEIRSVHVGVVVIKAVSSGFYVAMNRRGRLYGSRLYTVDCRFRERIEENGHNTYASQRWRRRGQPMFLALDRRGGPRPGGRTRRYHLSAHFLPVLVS
E coli growth = inhibitors of Escherichia coli growth; OD600, 23 h; hits give low values; OD600 absorbance (concentration not given with the values); hit rate 0.21% among 330,000;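 active means OD600 absorbance below the run mean of sample wells minus 3.6 SD, in any replicate, cut at about 0.56 in these data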;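 further: stock transfer was 300 nL into about 60 µL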
Beta2AR agonist = human beta-2 adrenergic receptor agonism by FAP; Am2.2-beta2AR cells, FAP receptor internalization, flow cytometry; reference of the scale not given here; hit rate 0.43% among 340,000; response, % (concentration not given with the values); AID 504454; P07550;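 active means response above a set limit, near 3 SD of response in nonfluorescent compounds, cut at about 42% in these data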;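 further: stock transfer was 100 nL into about 11 µL; a reference agonist was the positive control; negative values mostly stem from fluorescent compounds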
UCH37 DUB inh = human UCH37 deubiquitinating enzyme inhibition. Q9Y5K5. purified proteasome/UCH37, Ub-AMC cleavage fluorescence. inhibition, % (no concentration beside the values). hit rate 0.33% among 330,000. AID 588478;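 active means mean of two replicates above 20%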;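 further: 0% = compound-free wells with enzyme and 100% = wells lacking proteasome; stock transfer was 100 nL into about 20 µL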
Target sequence (Q9Y5K5 whole entry, looked up): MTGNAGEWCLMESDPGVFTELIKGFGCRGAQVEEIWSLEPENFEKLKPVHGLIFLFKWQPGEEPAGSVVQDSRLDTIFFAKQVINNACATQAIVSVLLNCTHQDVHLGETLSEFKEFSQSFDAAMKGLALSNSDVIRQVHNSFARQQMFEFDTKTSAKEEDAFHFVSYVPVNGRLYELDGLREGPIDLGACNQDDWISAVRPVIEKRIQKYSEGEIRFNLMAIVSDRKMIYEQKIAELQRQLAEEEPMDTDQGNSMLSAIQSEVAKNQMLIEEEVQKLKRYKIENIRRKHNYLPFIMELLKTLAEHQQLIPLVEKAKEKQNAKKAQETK
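Material: Human UCH37 enzyme supplied as purified proteasome complex | Schedule: 30 min preincubation with enzyme, 25 min cleavage at room temperature | Detection: AMC fluorescence 355/460 nm | Measure: % inhibition of Ub-AMC cleavage fluorescence | Controls: Wells without proteasome as full block, compound-free enzyme plus substrate as uninhibited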
HNF4A DNA FP = change in binding of human HNF4 alpha to DNA. P41235. HNF4a-FITC DNA binding, fluorescence polarization, 1 h. activity change, % at 10 µM. hit rate 0.3% among 360,000. AID 1224865; in the data active means activity change above about 30%, passing the limit was not always enough;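 further: controls were the assay level and a saturating level of protein; the project sought stronger binding though the title names inhibitors; some compounds called inactive have numbers as strong as hits; positive values seem to mean higher polarization but the record does not say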
rRNA inh HTS = selective bacterial rRNA inhibition in E. coli | hit rate 1.6% among 350,000 | GFP signal change (wild-type ribosome), % (concentration not given with the values) | E. coli WT GFP vs humanized-ribosome RFP mutants, fluorescence, 24 h; hits give low values; DMSO median 0, no signal -100 | AID 720706;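 active means significant combined selectivity score with lowered wild-type GFP, culture density cut under 30%, mutant RFP and density less affected; inactive means any of these conditions unmet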; further: one replicate is shown; some compounds called inactive have numbers as strong as hits
ALR inh = inhibitors of human sulfhydryl oxidase ALR; P55789; purified ALR, DTT oxidation, H2O2 HRP-luminol luminescence; inhibition, % (no concentration beside the values); hit rate 3.8% among 290,000; AID 485317;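 active means mean and each replicate at 75% or more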;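 further: stock transfer was 7.5 nL into about 7.5 µL; 0% = neutral wells and 100% = wells with inactivated enzyme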
Target sequence (P55789 whole entry, looked up): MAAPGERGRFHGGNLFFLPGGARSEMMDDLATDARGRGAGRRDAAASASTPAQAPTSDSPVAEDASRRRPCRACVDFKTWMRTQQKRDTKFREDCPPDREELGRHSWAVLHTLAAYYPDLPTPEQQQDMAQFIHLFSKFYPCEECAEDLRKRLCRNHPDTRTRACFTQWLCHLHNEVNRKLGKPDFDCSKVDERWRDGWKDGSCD
rRNA inh HTS OD600 = second read-out of rRNA inh HTS, no call of its own (marks repeat the call); OD600 change, %; measured here: OD600 growth;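 optical density of the mix in the first replicate; 0 = DMSO median and -100 = no signal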
rRNA inh HTS RFP = recorded beside rRNA inh HTS, whose call it bears; RFP signal change, %; measured here: RFP humanized mutant strains;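 first replicate; 0 = DMSO median and -100 = no signal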
* = called active by the depositor. This is a subset; count on the stated rates, not on these rows.

Screening CC1(C(=O)NS(=O)(=O)Cc2ccccc2C(F)(F)F)CCN1C(=O)c1cccc(F)c1 (stereo unspecified) returned FGF22 binding inactive, HNF4A DNA FP 1.8, rRNA inh HTS 8, rRNA inh HTS OD600 10 and rRNA inh HTS RFP -2.4.
For CCOc1ccc(NC(=NCc2ccc3c(c2)OCO3)SC2CC(=O)N(c3ccc(OCC)cc3)C2=O)cc1 (stereo unspecified) the results were E coli growth 0.79, Beta2AR agonist 35, UCH37 DUB inh 3.1, HNF4A DNA FP -0.1 and ALR inh 2.
Screening COc1ccccc1CN(CC(=O)NCc1ccc2c(c1)OCO2)C(=O)c1csnn1 returned FGF22 binding inactive, E coli growth 0.66, Beta2AR agonist -2, UCH37 DUB inh 2.6, HNF4A DNA FP 0.7, rRNA inh HTS -2, ALR inh 1, rRNA inh HTS OD600 -4 and rRNA inh HTS RFP 2.7.
Screening Cc1ccc(OCC(=O)NNC(=O)Nc2ccc(Cl)cc2)c(Br)c1 returned E coli growth 0.66, Beta2AR agonist -1, UCH37 DUB inh 6.9, HNF4A DNA FP 3.8, rRNA inh HTS 11, ALR inh -1, rRNA inh HTS OD600 17 and rRNA inh HTS RFP -1.2.
`CCN1C(=O)[C@H]2[C@@H](c3ccccc3)N[C@]3(CCCN(Cc4ccc(C)cc4)C3=O)[C@H]2C1=O` gave FGF22 binding inactive, HNF4A DNA FP -1.1, rRNA inh HTS 0, rRNA inh HTS OD600 6 and rRNA inh HTS RFP 0.6.
`C/C(=N\NC(=O)c1ccc(CSc2nc(C)cc(C)n2)cc1)c1ccco1` gave FGF22 binding inactive, Beta2AR agonist 10, HNF4A DNA FP 1.9, rRNA inh HTS 5, ALR inh 7, rRNA inh HTS OD600 5 and rRNA inh HTS RFP -2.0.
Cc1nnc(SCC(=O)NCc2ccccc2)n1-c1ccccc1 was read as E coli growth 0.7, Beta2AR agonist -4, UCH37 DUB inh 4.2, HNF4A DNA FP -3.4 and ALR inh -4.
`CCOC(=O)N1CCC(NC(=O)c2ccc3c(c2)ncn3C2CCCC2)CC1` gave FGF22 binding inactive, E coli growth 0.64, Beta2AR agonist -3, UCH37 DUB inh 4.8, HNF4A DNA FP -1.8, rRNA inh HTS -3, ALR inh 2, rRNA inh HTS OD600 2 and rRNA inh HTS RFP -1.4.
CC1=CC=CC2=NC(=O)CC(C)(C(=O)N(CC(=O)NC3CCCC3)c3ccc(F)cc3)N12 (stereo unspecified) was read as FGF22 binding inactive, E coli growth 0.7, Beta2AR agonist 0, UCH37 DUB inh -390, HNF4A DNA FP -3.6, rRNA inh HTS 22, rRNA inh HTS OD600 20 and rRNA inh HTS RFP 2.8.
Screening CC(=O)N/C(=C/c1ccc2c(c1)OCO2)C(=O)O returned FGF22 binding inactive, E coli growth 0.7, Beta2AR agonist 2, UCH37 DUB inh 4.0, HNF4A DNA FP -2.6, rRNA inh HTS 26, ALR inh -21, rRNA inh HTS OD600 17 and rRNA inh HTS RFP -0.6.
COc1ccc(/C(O)=C2/C(=O)C(=O)N(CCN(C)C)C2c2ccccc2)cc1Cl (stereo unspecified) was read as Beta2AR agonist 7, UCH37 DUB inh 8.3, HNF4A DNA FP -0.1, rRNA inh HTS 6, ALR inh -7, rRNA inh HTS OD600 11 and rRNA inh HTS RFP 0.5.
For CSc1ccc(CN(C)C(=O)c2ccc(S(=O)(=O)Nc3c(C)n(C)n(-c4ccccc4)c3=O)cc2)cc1 the results were FGF22 binding inactive, E coli growth 0.68, Beta2AR agonist 4, UCH37 DUB inh 1.6, HNF4A DNA FP -3.6, rRNA inh HTS -3, rRNA inh HTS OD600 -25 and rRNA inh HTS RFP -1.4.
`Cc1ccc(S(=O)(=O)N(CC(=O)NCc2cccnc2)C2CCCCC2)cc1` gave FGF22 binding inactive, E coli growth 0.71, Beta2AR agonist -13, UCH37 DUB inh 4.7, HNF4A DNA FP 2.4, rRNA inh HTS -18, ALR inh -3, rRNA inh HTS OD600 -17 and rRNA inh HTS RFP -1.5.
Screening COc1ccc(N2CCN(C(c3nnnn3CCc3ccccc3)C(C)C)CC2)cc1 (stereo unspecified) returned E coli growth 0.75, Beta2AR agonist -1, UCH37 DUB inh 5.3, HNF4A DNA FP -1.6 and ALR inh 63.
`CCN(CC)CCN(C(=O)CN1C(=O)CCC1=O)c1nc2cc3c(cc2s1)OCO3` gave FGF22 binding inactive, E coli growth 0.67, Beta2AR agonist 7, UCH37 DUB inh 5.6, HNF4A DNA FP -1.1, rRNA inh HTS 8, ALR inh 21, rRNA inh HTS OD600 7 and rRNA inh HTS RFP -3.6.
OCCN1CCN(CCO)C1=S was read as FGF22 binding inactive, Beta2AR agonist -7, HNF4A DNA FP -0.2, rRNA inh HTS 2, rRNA inh HTS OD600 7 and rRNA inh HTS RFP -3.7.
`OCCCNC(=S)NC1CCCC1` gave FGF22 binding inactive, E coli growth 0.7, Beta2AR agonist -1, UCH37 DUB inh 0.5, HNF4A DNA FP 3.7, rRNA inh HTS 5, ALR inh -5, rRNA inh HTS OD600 5 and rRNA inh HTS RFP -0.6.
`CC(C)(C)c1ccc(C(=O)NNC(=S)NCC2CCCO2)cc1` (stereo unspecified) gave E coli growth 0.63, Beta2AR agonist 5, UCH37 DUB inh 2.1, HNF4A DNA FP 2.0 and ALR inh 35.
Screening Cc1cc(C(=O)N2CCCC(C(=O)c3cc(F)ccc3F)C2)c(C)o1 (stereo unspecified) returned FGF22 binding inactive, E coli growth 0.69, Beta2AR agonist 1, UCH37 DUB inh 1.9, HNF4A DNA FP 1.1, rRNA inh HTS 1, ALR inh -1, rRNA inh HTS OD600 0 and rRNA inh HTS RFP 1.9.
CC(=O)Nc1nnc(-c2c(-c3c(Cl)cccc3Cl)noc2C)o1 was read as FGF22 binding inactive, E coli growth 0.71, Beta2AR agonist -12, UCH37 DUB inh 2.0, HNF4A DNA FP -0.3, rRNA inh HTS 1, ALR inh -12, rRNA inh HTS OD600 5 and rRNA inh HTS RFP -0.4.
For CN(C)C(CNC(=O)CSc1nc2ccccc2c(=O)n1Cc1ccco1)c1ccccc1 (stereo unspecified) the results were FGF22 binding inactive, E coli growth 0.67, Beta2AR agonist -3, UCH37 DUB inh 2.4, HNF4A DNA FP 3.1, rRNA inh HTS 1, ALR inh 6, rRNA inh HTS OD600 3 and rRNA inh HTS RFP 2.5.
Screening Cc1ccc(/C=C/C(=O)N2CCCC(C(N)=O)C2)o1 (stereo unspecified) returned FGF22 binding inactive, E coli growth 0.7, Beta2AR agonist -5, UCH37 DUB inh 6.8, HNF4A DNA FP 2.1, rRNA inh HTS -2, ALR inh -18, rRNA inh HTS OD600 -4 and rRNA inh HTS RFP -2.9.
CCOC(=O)N1CCN(CCC(=O)Nc2ccc(F)c(F)c2)CC1 was read as E coli growth 0.65, Beta2AR agonist -3, UCH37 DUB inh 1.4, HNF4A DNA FP 5.7, rRNA inh HTS -6, rRNA inh HTS OD600 4 and rRNA inh HTS RFP 2.1.
Screening O=C(Cn1ncc2ccccc21)N1CCc2ccccc21 returned FGF22 binding inactive, E coli growth 0.75, Beta2AR agonist -4, UCH37 DUB inh 1.4, HNF4A DNA FP -9.7, rRNA inh HTS 11, ALR inh -120, rRNA inh HTS OD600 7 and rRNA inh HTS RFP -0.3.
Screening CCc1ccccc1NC(=S)N1CCN(c2ccccn2)CC1 returned FGF22 binding inactive, E coli growth 0.68, Beta2AR agonist -4, UCH37 DUB inh -0.5, HNF4A DNA FP -2.2, rRNA inh HTS -9, rRNA inh HTS OD600 -3 and rRNA inh HTS RFP -12.
Screening CC(=O)Nc1ccc(S(=O)(=O)N2CCC(C(=O)NCc3ccco3)CC2)cc1 returned FGF22 binding inactive, E coli growth 0.67, Beta2AR agonist -1, UCH37 DUB inh 3.9, HNF4A DNA FP 0.1, rRNA inh HTS 13, ALR inh 3, rRNA inh HTS OD600 14 and rRNA inh HTS RFP -0.3.
`COc1cc(NC(=O)C2CC(c3cccc(Br)c3)=NO2)cc(OC)c1OC` (stereo unspecified) gave E coli growth 0.63, Beta2AR agonist 10, UCH37 DUB inh 4.1, HNF4A DNA FP 1.4, rRNA inh HTS -2, ALR inh -8, rRNA inh HTS OD600 -5 and rRNA inh HTS RFP 0.0.
COc1cccc(CN(C)C(=O)c2cc(COc3ccc(-n4cncn4)cc3)on2)c1 was read as FGF22 binding inactive, E coli growth 0.69, Beta2AR agonist -2, UCH37 DUB inh 2.8, HNF4A DNA FP -0.1, rRNA inh HTS -3, ALR inh -11, rRNA inh HTS OD600 -12 and rRNA inh HTS RFP -2.6.
Screening CS(=O)(=O)N1CCN(c2cccc(Cl)n2)CC1 returned E coli growth 0.73, Beta2AR agonist 3, UCH37 DUB inh 0.0, HNF4A DNA FP 0.5 and ALR inh 5.
For Cc1nc(N2CCOCC2)nc2c1CCC2 the results were FGF22 binding inactive, E coli growth 0.72, Beta2AR agonist 2, UCH37 DUB inh -21, HNF4A DNA FP 2.8, rRNA inh HTS 11, ALR inh -3, rRNA inh HTS OD600 9 and rRNA inh HTS RFP 1.9.
`C=CCn1c(SCC(=O)NC2CCS(=O)(=O)C2)nnc1-c1ccc(Cl)cc1` (stereo unspecified) gave FGF22 binding inactive, E coli growth 0.65, Beta2AR agonist 3, UCH37 DUB inh 0.2, HNF4A DNA FP -3.4, rRNA inh HTS 7, ALR inh 2, rRNA inh HTS OD600 7 and rRNA inh HTS RFP -2.2.
`O=C(CN1CCCN(S(=O)(=O)c2ccc(F)cc2)CC1)Nc1ccccc1Br` gave E coli growth 0.71, Beta2AR agonist 3, UCH37 DUB inh 3.5, HNF4A DNA FP -1.1 and ALR inh -10.
Screening CC(C)(O)CC[C@H](OC(=O)c1ccccc1)[C@](C)(O)[C@H]1CC[C@@]2(O)C3=CC(=O)[C@@H]4C[C@@H](O)[C@H](O)C[C@]4(C)C3CC[C@]12C (stereo partly specified) returned FGF22 binding inactive, E coli growth 0.66, Beta2AR agonist -3, UCH37 DUB inh 2.5, HNF4A DNA FP -0.6, rRNA inh HTS 8, ALR inh -4, rRNA inh HTS OD600 8 and rRNA inh HTS RFP -0.5.
For COc1ccc(OCc2nn3c(-c4ccccn4)nnc3s2)cc1 the results were E coli growth 0.71, Beta2AR agonist -9, UCH37 DUB inh 5.5, HNF4A DNA FP -0.4 and ALR inh -5.

Among those listed so far, these have two or more sulfur atoms.
For CSc1ccc(CN(C)C(=O)c2ccc(S(=O)(=O)Nc3c(C)n(C)n(-c4ccccc4)c3=O)cc2)cc1 the results were FGF22 binding inactive, E coli growth 0.68, Beta2AR agonist 4, UCH37 DUB inh 1.6, HNF4A DNA FP -3.6, rRNA inh HTS -3, rRNA inh HTS OD600 -25 and rRNA inh HTS RFP -1.4.
`C=CCn1c(SCC(=O)NC2CCS(=O)(=O)C2)nnc1-c1ccc(Cl)cc1` (stereo unspecified) gave FGF22 binding inactive, E coli growth 0.65, Beta2AR agonist 3, UCH37 DUB inh 0.2, HNF4A DNA FP -3.4, rRNA inh HTS 7, ALR inh 2, rRNA inh HTS OD600 7 and rRNA inh HTS RFP -2.2.

An excerpt from above in order of heavy-atom count, ascending:
Screening CS(=O)(=O)N1CCN(c2cccc(Cl)n2)CC1 returned E coli growth 0.73, Beta2AR agonist 3, UCH37 DUB inh 0.0, HNF4A DNA FP 0.5 and ALR inh 5.
`O=C(CN1CCCN(S(=O)(=O)c2ccc(F)cc2)CC1)Nc1ccccc1Br` gave E coli growth 0.71, Beta2AR agonist 3, UCH37 DUB inh 3.5, HNF4A DNA FP -1.1 and ALR inh -10.
Screening CC(C)(O)CC[C@H](OC(=O)c1ccccc1)[C@](C)(O)[C@H]1CC[C@@]2(O)C3=CC(=O)[C@@H]4C[C@@H](O)[C@H](O)C[C@]4(C)C3CC[C@]12C (stereo partly specified) returned FGF22 binding inactive, E coli growth 0.66, Beta2AR agonist -3, UCH37 DUB inh 2.5, HNF4A DNA FP -0.6, rRNA inh HTS 8, ALR inh -4, rRNA inh HTS OD600 8 and rRNA inh HTS RFP -0.5.
